# From PubChem
# TRPV1 PAM = HTS Assay for Compounds that Act as Potentiators of the Vanilloid Receptor 1; Transient receptor potential cation channel subfamily V member 1 (Homo sapiens), Q8NER1; TRPV1-expressing cells, Fluo-8 calcium influx, capsaicin EC20 potentiation; host cell line not named in the record; control for the full effect not named in the record; potentiation, % at 8.33 µM; hit rate 0.02% among 320,000; AID 540277, 2011; active means potentiation above 80%; inconclusive means 30% to 80%; inactive means below 30%; further: 0% is about no effect
#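 Fluo-8 calcium influx in TRPV1-expressing cells, kinetic read (ex 480/em 520 nm). Compound added and read 3 min for agonist activity, followed by capsaicin at EC20 final and 2 min further read for enhancement.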
# CtBP-E1A blk = qHTS Assay for Inhibitors of the CtBP/E1A Interaction. CtBP / adenovirus E1A interaction (AlphaScreen). AlphaScreen GST-E1A/His-CtBP binding, 1536-well; stronger effect = lower value; control for the full effect not named in the record. activity change, % (no concentration beside the values). hit rate 0.49% among 340,000; in the data active means activity change below about -65%; inconclusive means about -30% to -65%; inactive means above about -30%; further: on the % scale 0 is the no-effect control and ±100 the full control effect; compound concentration not given in the record
#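 Steps: dispense buffer (Tris pH 8.0, NaCl 300 mM, TCEP 1 mM, BSA, Tween 20); add 5X protein mix (GST-E1A, His-CtBP, 125 nM each); pin 23 nL compound; 2 h at 37 °C, dark; add 5X beads (50 ug/mL); 1 h; read.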
# PINK1 expr mod = A Quantitative High throughput Screen to Identify Chemical Modulators of PINK1 Expression | Potency, µM (titrated, usually from 76.6 µM), for inactives: at the highest dose activation (PINK1 increase), most hits filed as activators | AID 624263, 2012 | PINK1 immunofluorescence, high-content cytometry, 24 h | hit rate 0.2% among 410,000; active = well fitted activation curve with a large enough effect; inconclusive = small, poorly fitted or top-dose-only effect; inactive = flat fitted curve, though single readings scatter; cell line not stated here;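 further: potency means the concentration at half of the fitted maximal effect; % of control where 0% means no effect; nearly all actives have a fitted effect of over 65% in size; a mitochondrial uncoupler was the plate control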
#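 Decision-based qHTS: stable cells, 24 h exposure to five compound concentrations, CCCP as control. Fixed cells stained for PINK1 plus nuclear, mitochondrial and cell markers, cytometer read.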
# D2 PAM = Beta-Arrestin HTS for Positive Allosteric Modulators of the Human D2 Dopamine Receptor: Potentiators | AID 624464, 2012 | hit rate 0.23% among 360,000 | DiscoveRx D2 beta-arrestin cells, luminescence, 90 min; 100% = 57 uM dopamine signal | D(2) dopamine receptor (Homo sapiens), P14416 | potentiation, % (test concentration not listed); active = potentiation of 50% or more; inconclusive = 30% to 50%; inactive = 30% or less;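 further: compound concentration not given in the record; tested on top of an EC20 dose of dopamine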
#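 PathHunter D2 cells, attached overnight at 37 deg C, received compound in DMSO plus dopamine at EC20 (50 nM final) for 90 min at 37 deg C. Beta-arrestin recruitment was read as luminescence after 1 h with detection reagent at ambient temperature.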
# Six1-Eya2 inh = qHTS Assay for Inhibitors of the Six1/Eya2 Interaction | Homeobox protein SIX1 (Homo sapiens) + Protein phosphatase EYA2 (Homo sapiens), … | AlphaScreen GST-Six1/His-Eya2 binding, biochemical; stronger effect = lower value; control for the full effect not named in the record | activity change, % (concentration not given with the values) | hit rate 0.56% among 360,000; in the data active = activity change below about -65%; inconclusive = about -30% to -65%; inactive = above about -30%; further: on the % scale 0 is the no-effect control and ±100 the full control effect
# Target sequence (O00167 whole entry, looked up): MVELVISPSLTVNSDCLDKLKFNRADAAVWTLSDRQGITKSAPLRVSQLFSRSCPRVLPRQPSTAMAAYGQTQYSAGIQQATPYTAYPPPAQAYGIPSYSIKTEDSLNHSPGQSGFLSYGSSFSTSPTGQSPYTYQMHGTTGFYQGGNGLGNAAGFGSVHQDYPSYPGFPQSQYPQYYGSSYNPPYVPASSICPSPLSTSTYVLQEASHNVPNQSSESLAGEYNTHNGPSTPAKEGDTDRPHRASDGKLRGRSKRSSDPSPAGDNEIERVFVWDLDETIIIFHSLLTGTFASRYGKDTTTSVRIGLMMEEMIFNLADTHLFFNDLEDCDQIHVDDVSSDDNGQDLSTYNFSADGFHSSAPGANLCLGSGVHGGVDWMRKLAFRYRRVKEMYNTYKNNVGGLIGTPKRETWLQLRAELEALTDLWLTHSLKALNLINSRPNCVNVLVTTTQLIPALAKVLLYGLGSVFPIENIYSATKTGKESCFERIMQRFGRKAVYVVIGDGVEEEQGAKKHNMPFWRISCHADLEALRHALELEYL
# Target sequence (Q15475 whole entry, looked up): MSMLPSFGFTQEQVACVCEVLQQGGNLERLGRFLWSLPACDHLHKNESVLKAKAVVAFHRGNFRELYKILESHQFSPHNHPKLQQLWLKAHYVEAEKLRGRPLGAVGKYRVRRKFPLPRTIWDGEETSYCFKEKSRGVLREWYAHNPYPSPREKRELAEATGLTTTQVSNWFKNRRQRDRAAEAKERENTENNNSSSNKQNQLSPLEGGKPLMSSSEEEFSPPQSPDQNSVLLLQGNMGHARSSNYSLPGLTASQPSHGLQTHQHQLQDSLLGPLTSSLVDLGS
#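 GST-Six1 + His-Eya2 (5X stock: 250/500 nM); Tris pH 8.0, 300 mM NaCl, 0.05% BSA, 0.02% Tween 20; GSH donor/Ni acceptor beads; 1 h 37 °C dark; AlphaScreen readout.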
# Sfp inh = qHTS Assay for Inhibitors of Bacillus subtilis Sfp phosphopantetheinyl transferase (PPTase); hit rate 3.5% among 310,000; Biochemical Sfp PPTase activity, qHTS; AID 1490, 2009; Potency, µM, without a hit: max response, negative = inhibition, actives largely listed as inhibitors; active means well fitted inhibition curve with a large enough effect; inconclusive means small, poorly fitted or top-dose-only effect, or another doubt; inactive means no such curve, though single readings can be large or run the other way;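 further: the enzyme is Sfp with the accession as filed and its product quenches rhodamine fluorescence; potency means the concentration at half of the fitted maximal effect; 0% = enzyme reaction without inhibitor and -100% = no enzyme wells; top concentration of the series not given in the record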
#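 Step 1, compound plus 15 nM Sfp-PPTase, 15 min, room temperature. Step 2, add rhodamine-CoA (5 uM) and BHQ-2-YbbR (12.5 uM). Step 3, read 525/598 nm fluorescence at 0 and 30 min.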
# D2 ag = Beta-Arrestin HTS for Positive Allosteric Modulators of the Human D2 Dopamine Receptor: Agonists | AID 624465, 2012 | hit rate 0.084% among 360,000 | DiscoveRx PathHunter D2 beta-arrestin, luminescence, 90 min; 100% = 57 uM dopamine signal | activation, % (no concentration beside the values) | D(2) dopamine receptor (Homo sapiens), P14416; in the data active = activation above about 40%; inconclusive = about 15% to 40%; inactive = below about 15%; further: compound concentration not given in the record; the text of the record calls up to 30% inactive
#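 Agonist mode: compounds alone added to overnight-plated D2 PathHunter cells for 90 min at 37 C, with 57 uM final dopamine (EC100) defining full response. Beta-arrestin recruitment detected by chemiluminescent reagent, read after 1 h at ambient temperature.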
# Active calls of the source: *; ? = inconclusive; · = not tested or not shown; & = joins results of further samples; [ ] = dose if it differs, or a comment.
SMILES,TRPV1 PAM,CtBP-E1A blk,PINK1 expr mod,D2 PAM,Six1-Eya2 inh,Sfp inh,D2 ag
CCN1C(=O)C(CC(=O)Nc2cccc(C(C)=O)c2)S/C1=N\c1ccccn1 (centres undefined),18,8,-1.1%,-17,11,-18%,-0.5
CC(C)c1ccccc1NC(=O)Nc1ccc2c(c1)OCO2,-4,-2,0.7%,-9,-9,8%,-3.5
O=C(NC1CCN(C(=O)N2CCOCC2)CC1)c1ccccc1,-16,7,-1.3%,-10,2,-20%,-2.8
COc1ccccc1N1CCSC1C(N)=O (centres undefined),-3,3,-1.2%,-22,-4,8%,0.1
Cc1ccc(S(=O)(=O)N(C)CC(=O)Nc2ncccc2C)cc1,8,-3,6.1%,-15,8,·,-3.5
N#Cc1ccc(NC(=O)C2CC(c3ccc(F)cc3)=NO2)cc1 (centres undefined),-17,-22,?,-9,20,10%,-2.3
N#Cc1ccc(OCc2cccc(S(=O)(=O)N3CCOCC3)c2)cc1,7,1,-2.4%,-9,-3,·,6.9
CCOC(=O)/C(=C\Nc1ccc(OC(F)(F)F)cc1)Sc1ncc(C(F)(F)F)cc1Cl,14,0,0.9%,-1,15,5%,1.4
COc1cc2c(cc1OC)C(=O)Cc1ccc3c(c1CN(C)CC2)OCO3,22,-4,0.8%,-55,5,14%&2%&17%,-6.9
CCOc1ccc(CN2CCNC(=O)C2CC(=O)NCCc2cnccn2)cc1 (centres undefined),4,4,-0.2%,-1,0,3%,-0.6
CC(C)CCNC(=O)c1onc(CSc2ccccn2)c1C(=O)NCCC(C)C,·,2,13%,-14,13,·,-3.4
COc1ccc(NS(=O)(=O)c2cc(NS(=O)(=O)c3cccs3)ccc2C)cc1,6,-21,12%,4,7,·,4.7

# Full records as entered above.
# `CCOc1ccc(CN2CCNC(=O)C2CC(=O)NCCc2cnccn2)cc1` (centres undefined) across the screens: TRPV1 PAM = 4; CtBP-E1A blk = 4; PINK1 expr mod = -0.2%; D2 PAM = -1; Six1-Eya2 inh = 0; Sfp inh = 3%; D2 ag = -0.6
# `CC(C)c1ccccc1NC(=O)Nc1ccc2c(c1)OCO2` across the screens: TRPV1 PAM = -4; CtBP-E1A blk = -2; PINK1 expr mod = 0.7%; D2 PAM = -9; Six1-Eya2 inh = -9; Sfp inh = 8%; D2 ag = -3.5

# (more compounds)
SMILES,TRPV1 PAM,CtBP-E1A blk,PINK1 expr mod,D2 PAM,Six1-Eya2 inh,Sfp inh,D2 ag
Cn1cc(CN2CCC[C@H]2CO)c(-c2cccc(Cl)c2)n1,17,5,-3.8%,-9,5,18%,-1.2
CC1SC(C)C(=O)N(CC(=O)NCc2ccc(F)cc2)C1=O (centres undefined),4,1,0.5%,-2,10,12%,-3.7
Cc1c(NC(C)c2cc(Cl)ccc2O)c(=O)n(-c2ccccc2)n1C (centres undefined),-22,-3,3.1%,3,4,0%,1.0
CCCCN1c2ccccc2N(CCCO)c2cc(C)nnc21,-3,2,-1.4%,-12,3,9%,1.7
O=C(NCc1ccccc1CN1CCCC1)C1CCN(C(=O)c2ccc(F)cc2)CC1,11,·,1.0%,-3,-2,·,-3.3
COc1cccc(C2Nc3ccc4ccccc4c3C3=C2C(=O)CC(C)(C)C3)c1OCC(=O)O (centres undefined),25,·,0.3%,13,-2,19%,-0.7
CCOC(=O)c1c(C)[nH]c(C)c1S(=O)(=O)NCC(=O)Nc1ccccn1,-4,·,-0.5%,-1,19,23%,-2.1
COC(=O)c1c(NS(=O)(=O)c2cccs2)sc2c1CCCC2,28,-4,-0.3%,-2,0,4%,-2.1
CCOc1ccc(NC(=O)CN(C)C(=O)c2cc(S(=O)(=O)N3CCCCC3)ccc2C)cc1OCC,3,6,-2.4%,3,-2,·,3.2
CN(CC(=O)Nc1ccccc1Cl)C(=O)COC(=O)/C=C/c1ccccc1,-11,-10,-1.2%,-20,12,·,8.5
CC(C)CC1Nc2ncnc(N3CCOCC3)c2N(Cc2ccccc2)C1=O (centres undefined),·,10&3,0.2%&1.7%,-2&-4,0&6,·,0.4&-2.1
COc1cc(C(=O)OCC(=O)Nc2cccc(S(=O)(=O)N3CCOCC3)c2)ccc1OCC(C)C,-2,0,9.3%,?,-6,·,1.3
C=CCn1c(=O)c(C(=O)Nc2cccnc2)c(O)c2ccccc21,25,-9,21%,15,9,7%,0.5
CCn1cc(/C=C/C(=O)c2ccc(O)cc2)c(C)n1,19,9,0.5%,-2,0,12%,2.2
Cc1ccc(S(=O)(=O)NCC(c2cccnc2)N2CCN(Cc3ccccc3)CC2)cc1 (centres undefined),1,1,-0.5%,-7,2,7%,-1.5
COc1ccc(C2=NOC3(CC(=O)N(c4ccc(C)cc4)C3=O)C2)cc1 (centres undefined),5,2,-1.2%[38.3 µM],-2,-2,-15%,0.3
CCN(CC)S(=O)(=O)c1ccc(C(=O)NCc2n[nH]c(=S)n2-c2ccc(Cl)c(Cl)c2)cc1,?,-7,-1.6%,-10,0,?,-4.1
COc1cccc(C(=O)Nc2ccc3nc4n(c(=O)c3c2)CCCC4)c1,1,?,2.3%,16,-26,20%,2.2
CCOc1ccc(OCC)c(S(=O)(=O)N2CCCCC2)c1,2,2,-1.9%[38.3 µM],-8,6,14%,0.4
Oc1cccc(NC(=S)Nc2cccnc2)c1,14,9,2.0%,-2,4,-67%,-4.3
CS(=O)(=O)Nc1ccc(S(=O)(=O)NC2CCCCC2)cc1,12,11,-0.5%,-4,1,7%,1.0
COc1ccc(-c2cn(-c3ccc(C)cc3C)c(=S)[nH]2)cc1OC,-24,-26,0.6%,-8,-11,-29%,-5.4
C=CCOc1c(Br)cc(CNc2ccc(NC(=O)C(C)C)c(OC)c2)cc1OCC,21,4,1.5%,?,-3,?,6.6
CCCSc1nc2cc(OC)c(OC)cc2c(=N)n1CCCN1CCOCC1,-3,1,4.3%,-46,-17,-12%,-7.0
COc1ccc(NC(=O)CC2C(=O)N(c3cccc(C)c3)C(=O)N2C2CCCCC2)cc1 (centres undefined),3,-1,1.6%&-2.2%,5,2,?,-2.5
CCOC(=O)C1CCN(C(c2cc3ccc(C)c(C)c3[nH]c2=O)c2nnnn2C2CCCCC2)CC1 (centres undefined),-23,25,15%[38.3 µM],-13,17,?,-2.5
O=S1(=O)N[C@@H](Cc2ccccc2)COc2cccc(N3CCN(Cc4ccccc4F)CC3)c21,·,-10,1.4%,·,-20,·,·
Cc1c(NC(=O)c2noc(C(C)C)c2[N+](=O)[O-])c(=O)n(-c2ccccc2)n1C,?,5,-0.5%,-5,-4,3%,-1.6
CC(SCc1cn2cc(Cl)ccc2n1)C(=O)O (centres undefined),-8,2,6.9%,-20,5,-1%,-0.9
OC[C@@H]1CN(Cc2ccco2)C[C@H](n2cnc3c(N4CCN(c5ccccc5)CC4)ncnc32)O1,·,?,1.1%,11,?,·,14
COc1ccccc1C(c1nnnn1C(C)(C)C)N1CCN(Cc2ccccc2)CC1 (centres undefined),2,-1,0.3%,-35,-2,14%,-4.3
CCOC(=O)[C@]12Cc3c(cc(OC)c(OC)c3OC)[C@H]1N(Cc1ccccc1)C(=O)c1cc(F)c(F)cc12,·,-2,-1.2%,·,-9,·,·
CCc1noc(C)c1C(=O)OCC(=O)NCc1ccccc1,2,·,-1.0%,-1,-1,·,-3.4
CCOC1=C2[C@H]([C@H]3C(=O)N(c4ccccc4)C(=O)[C@H]3C1)[C@@H](C(C)C)N(S(=O)(=O)c1ccc(C)cc1)[C@H]2c1ccccc1,·,3,0.0%,0,1,·,-4.9
CCc1ccc(N2CC(C(=O)Nc3ccc(S(=O)(=O)N4CCCCC4)cc3)CC2=O)cc1 (centres undefined),8,0,1.8%,0,9,3%,1.4
O=C(Cc1ccccc1)NN1C(=O)/C(=C/c2ccccc2C(=O)O)SC1=S,5,-19,1.1%,-4,-11,-22%,-3.6
CC(=O)N/C(=N/c1nc(C)cc(C)n1)Nc1ccc(NC(C)=O)cc1,9,0,0.8%,-10,-1,3%,-1.8
N#Cc1ccc(C(=O)N(Cc2ccco2)c2c(N)n(Cc3ccccc3)c(=O)[nH]c2=O)cc1,-6,1,0.7%,-1,0,·,0.3
COCCSc1nnc(NC(=O)CSc2ccccc2)s1,-6,13,·,-19,3,-10%,-0.8
C[C@@H](NCCc1ccc(O)cc1)[C@@H](O)c1ccc(O)cc1,·,2,1.8%,-14,-2,·,-3.4
CCCNc1c(F)c(F)c2c(C)c3ccccc3nc2c1F,-8,-11,-0.6%,?,-5,0%,0.1
COc1cc(OC)cc(C(=O)NCCSC2CCCCC2)c1,-14,4,0.5%,-18,-5,8%,0.1
CC1OC2(OC1C)C(=O)Nc1ccccc12 (centres undefined),2,2,0.7%,1,1,13%,-1.0
CS(=O)(=O)N(CC(=O)N1CCN(c2ccccc2F)CC1)c1ccc2c(c1)OCCO2,10,12,-1.0%[38.3 µM],-5,2,1%,0.6
NC(=O)c1ccc2c(c1)S(=O)(=O)c1ccccc1C2=O,27,·,-1.8%,1,-6,-27%,-4.6
CC1(C)CC(CC(=O)O)CC(C)(C)N1,5,0,-1.7%,-7,5,3%,-3.2
Cc1ccsc1C(=O)Nc1ccc(S(=O)(=O)N2CCOCC2)cc1,-7,4,0.4%,-12,-6,·,6.7
COc1ccc(CNC(=O)[C@@H](C)NC(=O)C2CCN(C(=O)[C@@H](N)CCSC)CC2)cc1,-4,-7,1.0%,-20,-7,4%,-4.9
CCOc1ccc(OCC)c(S(=O)(=O)NCCOC23CC4CC(CC(C4)C2)C3)c1,-8,16,14%,-21,9,9%,2.4
CCCc1nc(NCc2ccccn2)c2nnn(Cc3ccccc3F)c2n1,2,-23,5.4%,5,7,-2%,-0.8
COc1cc(NC(=O)CN2C(=O)NC(C)(c3ccc4ccccc4c3)C2=O)c(C)cc1[N+](=O)[O-] (centres undefined),11,-21,0.4%,-3,-18,12%,-0.8
